VDR inhibitor = blocks the human vitamin D receptor; actives 0.93% (n = 400,000); P11473; VDR-SRC2-3 peptide fluorescence polarization, 2 h; Potency, µM, for the others: max response, negative = inhibition, actives largely listed as inhibitors; active = well fitted inhibition curve with a large enough effect; inconclusive = small, poorly fitted or top-dose-only effect, or another doubt; inactive = no such curve, though single readings can be large or run the other way; note: series mostly up to about 120 µM
Target sequence (P11473 whole entry, looked up): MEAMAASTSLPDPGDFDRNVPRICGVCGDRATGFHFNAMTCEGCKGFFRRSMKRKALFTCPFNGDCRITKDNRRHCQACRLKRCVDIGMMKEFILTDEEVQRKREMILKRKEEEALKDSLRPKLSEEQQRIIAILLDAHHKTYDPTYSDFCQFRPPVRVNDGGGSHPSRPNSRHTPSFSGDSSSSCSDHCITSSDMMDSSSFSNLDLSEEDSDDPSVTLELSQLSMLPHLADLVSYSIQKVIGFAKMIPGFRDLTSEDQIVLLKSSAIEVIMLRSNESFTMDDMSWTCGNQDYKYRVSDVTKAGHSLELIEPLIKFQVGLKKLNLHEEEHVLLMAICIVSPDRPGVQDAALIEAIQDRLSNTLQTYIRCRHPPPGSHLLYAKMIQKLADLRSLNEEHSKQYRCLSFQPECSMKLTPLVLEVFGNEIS
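Reagent solutions, kept cold and dark, are dispensed first; compounds are then pinned in at 23 nl, plates briefly spun, and incubated 2 h at ambient temperature. Inhibition of VDR–SRC2-3 peptide binding is read by fluorescence polarization.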
Numbers without * were called inactive; ? = inconclusive; & = joins results of further samples; [ ] = dose if it differs, or a comment. % is set by controls: 0 for no effect and ±100 for the full control effect; potency is the fitted concentration of half-maximal effect. Some of the compounds tested (hit frequency here may not be typical).

VDR inhibitor	compound
-14%	O=c1cc(O)c2sc3nc(C(F)(F)F)c4c(c3c2[nH]1)CCCCC4
14%	O=C(CSc1nc2ccccc2s1)Nc1ncccn1
-10%	COc1ccc(S(=O)(=O)N2CCOCC2)cc1NC(=O)CNC(=O)c1cccs1
-11%	O=[N+]([O-])c1ccc(C2=Nc3cc(Cl)ccc3OC2)cc1
8%	CCN(Cc1ccccc1)C(=O)C1CCN(S(=O)(=O)c2ccc3c(c2)CCCN3C(C)=O)CC1
-35%	CCOC(=O)C1=C(CN2CCN(c3cc(C)ccc3C)CC2)NC(=O)NC1c1ccc(Cl)cc1 (centres undefined)
-5%	CC(C)c1ccc(S(=O)(=O)c2nnn3c2nc(NC2CCCC2)c2sccc23)cc1
-19%	CN(Cc1ccccc1)C(=O)c1cccc(NC(=O)Cc2cccc(NC(=O)C3CCN(C(=O)C4CC4)CC3)c2)c1
-1%	COc1cc(C(=O)N2CCC(NC(=O)C(Cc3ccc(C)cc3)NC(C)=O)CC2)cc(OC)c1OC (centres undefined)
3%	O=C(Nc1ccc(F)cc1)C1CCN(S(=O)(=O)c2cccc3nonc23)CC1
-2%	CCOc1ccccc1N1CCN(CC(=O)N(CC(C)C)c2c(N)n(CC(C)C)c(=O)[nH]c2=O)CC1
-8%	Cc1ccc(NC(=O)C(=O)NC(C)C2COc3ccccc3O2)cc1 (centres undefined)
-6%	Cc1ccc(Cl)cc1NC(=O)CN1C(=O)COc2ccc(S(=O)(=O)N3CCCCCC3)cc21
-1%	Cn1ncc(Cl)c1C(=O)NCc1ccc2c(c1)OCO2
1%	CCOc1ccccc1NC1c2ccccc2C(=O)N1c1ccc(C)cn1 (centres undefined)
19%	NC(=O)CSc1ncnc2c1cnn2Cc1ccccc1
45µM*	COC(=O)c1cc(=O)nc2sc(-c3ccc(F)cc3)nn12
-4%	COc1ccc(NC(=O)COC(=O)/C=C/c2ccccc2[N+](=O)[O-])cc1OC
-1%	CN(c1cccc(NS(=O)(=O)c2cccs2)c1)S(C)(=O)=O
-3%	CN(C)CCNC(=O)c1cccc2ccc(-c3ccc(-c4ccccc4)cc3)nc12

Next section; it opens with the two that closed the last part.
VDR inhibitor	compound
-1%	CN(c1cccc(NS(=O)(=O)c2cccs2)c1)S(C)(=O)=O
-3%	CN(C)CCNC(=O)c1cccc2ccc(-c3ccc(-c4ccccc4)cc3)nc12
-16%	CC(C)NC(=O)C1CCN(Cc2cnn(-c3ccccc3)c2-n2cccc2)CC1
-8%	CC(C)OC(=O)CC1C(=O)NCCN1C(=O)COc1ccc(C(C)(C)C)cc1 (centres undefined)
-22%	CCCC(=O)Nc1ccc2c(c1)nc1n2CCN(C2CCCCC2)C1
9%	CCOC(=O)C(C)Oc1ccc(NC(=O)C(Cl)Cl)cc1 (centres undefined)
-16%	COc1ccc(OC)c(/C=C/C(=O)NC2=NCCS2)c1
-4%	Cc1c(C(=O)N2CCCC2)c(S(=O)(=O)Nc2cccc(Br)c2)c(C)n1C
-13%	CCCCC1CCC(C(=O)N(CCOC)c2c(N)n(CCCC)c(=O)[nH]c2=O)CC1 (centres undefined)
2%	O=C(O)CCc1nnc(SCC(=O)Nc2ccc(Cl)c(C(F)(F)F)c2)[nH]c1=O
14%	CC(=O)c1c(C)[nH]c(C(=O)OCC(=O)c2ccc(C)s2)c1C
6%	CCOC(=O)c1cnc(-n2[nH]c(C)c(Cc3ccccc3)c2=O)[nH]c1=O
5%	CCOc1ncccc1C(=O)N1CCN(Cc2ccc3c(c2)OCO3)CC1
4%	COc1cc(C2c3c(-c4ccccc4O)n[nH]c3C(=O)N2Cc2ccncc2)cc(OC)c1OC (centres undefined)
10%	CN(CC(=O)Nc1ccc(F)cc1)C(=O)COC(=O)c1cc(S(=O)(=O)N(C)C)ccc1N1CCCC1
3%	COc1ccc(OC)c(NC(=O)CSc2nnc(Cc3cccn3C)n2CCc2ccccc2)c1
-20%	CC(C)(C)OC(=O)NCc1ccc(CNC(=O)c2nc[nH]c2C(=O)N2CCc3ccccc3C2)cc1
17%	CC12C=CC3(CN(Cc4ccccc4)C(=O)C3C1C(=O)NC1CC1)O2 (centres undefined)
2%	O=C(Nc1ccccc1)N1CC[C@@]2(CCCN(C(=O)c3cccc(F)c3)C2)C1
3%	CC1(C)Cc2cccc(OCC(=O)NCc3ccccc3)c2O1
23%	Cc1[nH]c(=S)[nH]c(=O)c1Cc1ccccc1
-4%	COC(=O)c1nn(-c2ccc(OC)cc2)c(=O)cc1Sc1ccc(C)cc1

Overlap with the part before: six compounds, followed by the next part.
VDR inhibitor	compound
-20%	CC(C)(C)OC(=O)NCc1ccc(CNC(=O)c2nc[nH]c2C(=O)N2CCc3ccccc3C2)cc1
17%	CC12C=CC3(CN(Cc4ccccc4)C(=O)C3C1C(=O)NC1CC1)O2 (centres undefined)
2%	O=C(Nc1ccccc1)N1CC[C@@]2(CCCN(C(=O)c3cccc(F)c3)C2)C1
3%	CC1(C)Cc2cccc(OCC(=O)NCc3ccccc3)c2O1
23%	Cc1[nH]c(=S)[nH]c(=O)c1Cc1ccccc1
-4%	COC(=O)c1nn(-c2ccc(OC)cc2)c(=O)cc1Sc1ccc(C)cc1
17%	O=C(Nc1cccc(S(=O)(=O)N2CCOCC2)c1)c1ccc(N2CCOCC2)c([N+](=O)[O-])c1
-6%	CC(C)NC(=O)N(C)C[C@H]1Oc2ccc(NC(=O)C3CCCCC3)cc2C(=O)N([C@H](C)CO)C[C@@H]1C
-23%	CCC(C)NC(=O)CCn1c(-c2ccc(F)cc2)cc(C(C)=O)c1C (centres undefined)
-13%	O=C(Oc1ccc(C(=S)N2CCOCC2)cc1)c1ccccc1[N+](=O)[O-]
10%	COc1ccc(Cl)cc1N(C)C(=O)c1ccc2c(=O)n3c(nc2c1)CCCCC3
-9%	Cn1c(=O)[nH]c(=O)c2c1nc(SCC(=O)O)n2CCCc1ccccc1
5%&-8%	C[C@@H]1O[C@@H](O[C@H]2[C@H](Oc3cc(O)c4c(c3)O[C@H](c3ccc(O)cc3)CC4=O)O[C@H](CO)[C@@H](O)[C@@H]2O)[C@H](O)[C@H](O)[C@H]1O
1%	COc1cccc(NC(=O)c2c(C)nn(-c3cccc(C)c3)c2-n2cccc2)c1
-10%	COc1ccc(C(=O)NNC(=O)C2=NN(c3ccccc3)C(=O)CC2)cc1
-8%	COc1ccc(Cl)cc1NC(=O)C/C(C)=N/NC(=O)CCc1ccccc1
22%	O=C(CCc1ccccc1)NNC(=O)c1cc(Cl)ccc1O
-4%	CC(C)COC(=O)CCn1[nH]c(=O)c2ccccc2c1=O
13%	Cc1onc(-c2c(Cl)cccc2Cl)c1C(=O)N1C(C)CCCC1C (centres undefined)
-18%	Nn1cc(-c2ccccc2)nc1SCC(=O)NCCN1C(=O)CSC1=O
-8%	COc1c(C(C)C)cc(NC(C)=O)cc1C(C)C
3%	CCOc1ccc(CCNC(=O)CN2C(=O)c3cccnc3Oc3ccc(C)cc32)cc1OCC
-23%	Cn1ccs/c1=N\C(=O)Nc1ccccc1
2%	O=C1C(Cc2ccccc2)SC(=Nc2ccccc2)N1c1ccccc1 (centres undefined)
9%	O=C(Nc1ccc2nc(SCC(=O)N3CCOCC3)sc2c1)c1ccc(Br)cc1
?	CCc1nnc(NS(=O)(=O)c2ccc(NC(=S)NC(=O)/C=C/c3ccc(F)cc3)cc2)s1

Next section; the last six above are carried over.
VDR inhibitor	compound
-8%	COc1c(C(C)C)cc(NC(C)=O)cc1C(C)C
3%	CCOc1ccc(CCNC(=O)CN2C(=O)c3cccnc3Oc3ccc(C)cc32)cc1OCC
-23%	Cn1ccs/c1=N\C(=O)Nc1ccccc1
2%	O=C1C(Cc2ccccc2)SC(=Nc2ccccc2)N1c1ccccc1 (centres undefined)
9%	O=C(Nc1ccc2nc(SCC(=O)N3CCOCC3)sc2c1)c1ccc(Br)cc1
?	CCc1nnc(NS(=O)(=O)c2ccc(NC(=S)NC(=O)/C=C/c3ccc(F)cc3)cc2)s1
-5%	O=C(CCS(=O)(=O)c1cc(Br)cc2c1N(C(=O)C1CC1)CC2)N1CCN(c2ccccn2)CC1
?	CCCN1CC(=O)N2Cc3[nH]c4ccccc4c3C[C@H]2C1=O
-12%	NC(=O)CC[C@H](NC(=O)c1ccc(F)cc1)C(=O)OCC(=O)NCc1ccc2c(c1)OCO2
14%	COc1cccc(Nc2c(F)c(OC)c(F)c(F)c2C(=O)O)c1
-14%	CCCOc1ccc(C2C(C(=O)c3ccc(C)o3)=C(O)C(=O)N2Cc2ccco2)cc1 (centres undefined)
-13%	CN(C)Cc1ccccc1Cc1ccccc1
1%	N#Cc1c(-c2ccccc2Cl)c2c([nH]c1=O)-c1ccccc1OC2
10%	O=C(Nc1ccc(F)cc1)c1cccnc1
-12%	COc1cccc(NC(=O)CNC(=O)Cn2c(C)cc3ccccc3c2=O)c1
-4%&1%	Cc1cccc(CNC(=O)CCn2ccc3cc(S(=O)(=O)N4CCCC4)ccc32)c1
2%	Cc1ccc(-c2[nH]ncc2C(=O)c2ccc(Br)cc2)c(O)c1
-2%	CNc1nc(NC)c2cn[nH]c2n1
-9%	CCCN1CNc2c(c(=O)[nH]c(=S)n2CCc2ccsc2)C1
-12%	COc1ccccc1CNC(=O)CCCN1C(=O)NC2(CCCC2)C1=O
0%	O=C(NC1(C(F)(F)F)C(=O)Nc2c1c(=O)[nH]c(=O)n2Cc1ccco1)C1CC1 (centres undefined)
-6%	CCNS(=O)(=O)c1ccc(CCC(=O)N2CCN(c3ccccc3F)CC2)cc1
-6%	S=c1[nH]ncn1NCc1ccc(Cl)cc1Cl
-10%	COC(=O)c1cc([N+](=O)[O-])c(-n2cncn2)c([N+](=O)[O-])c1
-12%	O=C(Nc1ccc(Br)cn1)c1ccc([N+](=O)[O-])cc1Cl
-26%	O=C(CNc1cccc2ccccc12)N/N=C/C=C/c1ccco1
0%	COc1cccc(-n2nc3c(-n4ncc(C#N)c4N)nnc(C)c3c2C)c1
-13%	Cc1cccc(C)c1NC(=O)COC(=O)CCc1ccc(S(=O)(=O)N2CCCCC2)cc1
0%	COC(=O)COc1ccc(S(=O)(=O)NCc2cccnc2)cc1C
3%	CCOc1ccc(CCNc2ncnc3onc(-c4ccc(Cl)cc4)c23)cc1OCC
4%	Fc1cccc(/C=N/Nc2ncnc3nc[nH]c23)c1
-5%	Cc1cc(C)n(-c2nc3ccccc3nc2N2CCN(C(=O)c3ccc(Cl)cc3)CC2)n1
-24%	Cc1ccc(S(=O)(=O)Nc2ccc3c(c2)CCC3)cc1
-12%	C#CCOC(=O)C(NC(=O)c1ccccc1)=C(C)C
2%	COc1ccc(-n2sc3c(c2=S)-c2cc(OC)ccc2NC3(C)C)cc1
-3%	S=c1[nH]ccn1-c1c(Cl)cccc1Cl
?	Cc1c(C(=O)N2CCN(c3cccc(Cl)c3)CC2)cccc1[N+](=O)[O-]
-18%	COCC(=O)N/N=C/c1c(C)[nH]n(-c2ccccc2)c1=O
-11%	Cc1ccc(S(=O)(=O)CCC(=O)Nc2ccccc2Br)cc1
3%	COc1ccc2cc(C(=O)N3CCCCCC3)sc(=O)c2c1OC
-1%	COc1ccc(-c2csc(Nc3ccc(C)cn3)n2)cc1OC
-14%	COc1ccc(C(=O)NC(CCSC)C(=O)N2CCCCCC2)cc1 (centres undefined)
18%	CCOc1ccc2oc(C(=O)O)c(C)c2c1
-4%	Cc1c(Cl)cnc(NC(=O)COC(=O)c2ccc3c(c2)OCO3)c1Cl
9%	Cc1ccc2c(c1)cc1c(=O)n(CC(=O)NCc3ccco3)nc(C)n12
41%[activator]	COc1cc(/C=C/C(=O)N2C(=O)c3cccc(N)c3C2=O)cc(OC)c1OC
3%	COCCNCCOCCOc1ccc(Cl)c(C)c1
10%	O=C(NCc1ccccn1)[C@H]1C[C@@H]1[C@H](NP(=O)(c1ccccc1)c1ccccc1)c1ccccc1
8%	COC(=O)c1ccccc1NC(=S)N(C)C
-4%	Cc1[nH]nc2c1C1(C(=O)N(Cc3ccc(Cl)cc3)c3ccccc31)C(C#N)=C(N)O2 (centres undefined)
5%	O=C(NC1CCCCC1)N1CCCC(c2nc(-c3cccs3)no2)C1 (centres undefined)
-12%	O=C1NC(c2ccccc2)C(c2ccccc2)N1 (centres undefined)
2%	c1ccc(-c2nc(NC3CCCC3)c3ccccc3n2)cc1
4%	O=C(Nc1cc2c(cc1C(=O)c1ccccc1Cl)OCCO2)c1ccccc1
1%	Cc1cc(C(=O)C(=O)Nc2nnc(C(C)C)s2)c(C)n1-c1ccccc1
9%	CCCn1c(=O)c(C(=O)NNC(=O)Cc2ccccc2)c(O)c2ccccc21
8%	CCn1nc(C)c(/C=N/NC(=O)Cn2nc(C)cc2C)c1C
-13%	C/C(CC(=O)Nc1cc(Cl)ccc1Cl)=N\NC(=O)c1ccco1
-3%	COc1ccc(NS(=O)(=O)c2ccc(Oc3cccc(C(=O)O)c3)cc2)cc1
8%	COc1ccccc1N1CCN(S(=O)(=O)CCNC(=O)c2ccc(OC(C)C)cc2)CC1
2%	CC(=O)Oc1ccc2occ(-c3ccccc3)c2c1
10%	COc1ccc(-n2ncc3c(NCCCOC(C)C)ncnc32)cc1
-4%	Cc1cccc([N+](=O)[O-])c1NC(=O)CSc1nnc2ccccn12
2%	COC(=O)C(CCSC)NC(=O)CNC(=O)C1CCCCC1 (centres undefined)
-23%	CN(C)S(=O)(=O)c1cccc(NC(=S)NCc2ccc3c(c2)OCO3)c1
14%	COCCCN1C(=O)c2ccc(C(=O)OCC(=O)NCCc3ccccc3)cc2C1=O

Next part:
VDR inhibitor	compound
10%	Cc1cccc(C(=O)NCc2cn3cccc(C)c3n2)c1
7%	C=CCn1cccc(C(=O)Nc2cc(OC)ccc2OC)c1=O
-13%	COc1cccc(C2CC(c3ccc(F)cc3)Nc3nc(N)nn32)c1 (centres undefined)
7%	CCCCOc1ccccc1Cn1c(=O)sc2ccccc21
9%	CCc1nnc(SCc2cccc(F)c2)c2cc3sc(C)cc3n12
3%	Cc1ccc(C(=O)C2=C(O)C(=O)N(c3ncccn3)C2c2ccc(Br)cc2)o1 (centres undefined)

Source: PubChem
